Screening results (PubChem)
NOMO-1 viab: NOMO-1 AML cell viability reduction, primary screen, STK33 inhibitor project, CellTiter-Glo luminescence; hit rate 7.5% among 37,000; NOMO-1 AML viability, 72 h; AID 2330, 2010; inhibition, % (no concentration beside the values);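 active = most replicates above 80%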;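 note: wells of about 30 µL received 25 nL stock; 0% = median of vehicle wells and 100% = reference inhibitor level; the first replicate is given; inactives centre near 10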
Numbers without * were called inactive. This is a subset (hit frequency here may not be typical).

SMILES	NOMO-1 viab
C[C@@H]1CCCCO[C@H](CN(C)C(=O)CCCN(C)C)[C@@H](C)CN([C@H](C)CO)C(=O)c2cc(NC(=O)c3ccncc3)ccc2O1	-9
O=C(CSc1nnc(-c2cccnc2)n1-c1ccccc1)Nc1ccc(Oc2ccccc2)cc1	12
Cc1ccc(S(=O)(=O)Nc2ccc3c(c2)C(=O)N([C@H](C)CO)C[C@@H](C)[C@@H](CN(C)Cc2ccc(C(F)(F)F)cc2)O3)cc1	122*
C[C@@H]1CN([C@H](C)CO)C(=O)c2cccc(NC(=O)Nc3cccc4ccccc34)c2O[C@@H]1CN(C)S(C)(=O)=O	7
Cc1nc(NCCN2CCOCC2)c2sc3nc4c(cc3c2n1)COC(C)(C)C4	8
C[C@@H]1CN([C@H](C)CO)C(=O)c2cccc(NC(=O)Nc3ccc(F)cc3)c2O[C@@H]1CN(C)C(=O)Nc1ccccc1	12
C[C@@H]1CCCCO[C@H](CN(C)S(=O)(=O)c2cn(C)cn2)[C@@H](C)CN([C@H](C)CO)C(=O)c2cc(NS(=O)(=O)c3cccs3)ccc2O1	-2
CCOC(=O)c1ccc(COC(=O)c2cc3ccccc3cc2O)o1	8
C[C@H]1CN([C@@H](C)CO)C(=O)Cc2cc(NS(=O)(=O)c3ccc(Cl)cc3)ccc2O[C@H]1CN(C)C(=O)Nc1ccc2c(c1)OCO2	10
O=C(CSc1nnc(-c2ccc(C(F)(F)F)cn2)o1)Nc1cccc(Cl)c1	7
CC(C)NC(=O)Nc1cccc2c1O[C@H](CN(C)S(=O)(=O)c1cccs1)[C@@H](C)CN([C@@H](C)CO)C2=O	-8
C[C@@H]1CCCCO[C@@H](CN(C)C(=O)Nc2ccc(C(F)(F)F)cc2)[C@@H](C)CN([C@H](C)CO)C(=O)c2cc(NC(=O)Nc3ccc4c(c3)OCO4)ccc2O1	58
COc1ccc(CN(C)C[C@H]2Oc3ccc(NS(=O)(=O)c4cccs4)cc3C(=O)N([C@@H](C)CO)C[C@@H]2C)cc1	8
C[C@@H]1CN([C@@H](C)CO)C(=O)c2cccc(NS(=O)(=O)c3ccccc3)c2O[C@H]1CN(C)S(=O)(=O)c1cccs1	-7
COc1ccc(NC(=O)N(C)C[C@@H]2Oc3ccc(NC(=O)CCN4CCOCC4)cc3C(=O)N([C@@H](C)CO)C[C@H]2C)cc1	23
COc1ccccc1NC(=O)COc1ccc2c(-c3ccccc3)cc(=O)oc2c1C	-13
COc1ccc(NC(=O)N(C)C[C@@H]2Oc3ccc(NS(=O)(=O)c4ccc(OC)cc4)cc3C(=O)N([C@H](C)CO)C[C@@H]2C)cc1	10
CCOc1ccc(Cl)cc1S(=O)(=O)NC1CC(C)(C)NC(C)(C)C1	8
Cc1cc(OCC(=O)Nc2ccc(O)c(-c3nc4ccccc4o3)c2)ccc1Cl	107*
CNC[C@H]1Oc2ccc(NC(=O)Nc3ccc(F)cc3)cc2C(=O)N([C@H](C)CO)C[C@H]1C	0
CC(C)NC(=O)Nc1ccc2c(c1)CC(=O)N([C@@H](C)CO)C[C@@H](C)[C@@H](CN(C)Cc1ccc(C(F)(F)F)cc1)O2	-1
O=C(CSc1nnc(-c2cccc(Cl)c2)n1-c1ccccc1)Nc1ccc(F)c(F)c1	-19
N#C/C(N=Cc1cccs1)=C(\C#N)NCc1c(F)cccc1Cl	46
O=C(Nc1cccnc1)C1CC(c2c(F)cccc2Cl)=NO1 (configuration not stated)	11
O=C(CSc1nc(-c2ccc(F)cc2)cs1)Nc1ccc(N2CCOCC2)c(Cl)c1	4
COc1ccc(-c2nnc(SCC(=O)Nc3c(F)cc(F)cc3Br)n2C)cc1	12
C[C@@H]1CN([C@H](C)CO)C(=O)c2cccc(NS(=O)(=O)c3ccc(Cl)cc3)c2O[C@@H]1CN(C)Cc1ccc(C(F)(F)F)cc1	62
Cc1cccc(OCC(=O)Nc2cccc(-c3nnc(-c4ccco4)o3)c2)c1C	42
COc1ccc(CN(C)C[C@@H]2Oc3ccc(NS(=O)(=O)c4ccc(Cl)cc4)cc3CC(=O)N([C@@H](C)CO)C[C@@H]2C)cc1	9
C[C@@H]1CCCCO[C@@H](CN(C)C(=O)c2ccccc2)[C@@H](C)CN([C@H](C)CO)C(=O)c2cc(NC(=O)CCC(F)(F)F)ccc2O1	4
CCCCCCCNS(=O)(=O)c1cccc2c(Cl)cccc12	21
Cc1ccc(S(=O)(=O)Nc2ccc3c(c2)C(=O)N([C@H](C)CO)C[C@H](C)[C@H](CN(C)C(=O)Cc2ccccc2)OCCCC[C@@H](C)O3)cc1	31
C[C@H]1CN([C@@H](C)CO)C(=O)c2cc(NC(=O)C3CCCCC3)ccc2O[C@H]1CN(C)S(=O)(=O)c1ccccc1	17
C[C@@H]1CN([C@@H](C)CO)C(=O)c2cccc(NC(=O)c3ccncc3)c2O[C@@H]1CN(C)Cc1ccc(-c2ccccc2)cc1	18
C[C@@H]1CN([C@H](C)CO)C(=O)c2cccc(NS(=O)(=O)c3cn(C)cn3)c2O[C@H]1CN(C)C	7
Cn1c(=O)c2c(O)c(C=Nc3ccc(Cl)cc3)c(=O)n(C)c2n(C)c1=O	2
C[C@H](CO)N1C[C@H](C)[C@H](CN(C)S(=O)(=O)c2cn(C)cn2)Oc2ccc(NS(=O)(=O)c3ccccc3)cc2C1=O	3
C[C@@H]1CN([C@@H](C)CO)C(=O)c2cccc(NS(C)(=O)=O)c2O[C@H]1CN(C)Cc1ccncc1	-5
C[C@H](CO)N1C[C@H](C)[C@@H](CN(C)C(=O)Nc2ccccc2)Oc2ccc(NC(=O)CCN3CCOCC3)cc2C1=O	16
CC(C)NC(=O)Nc1ccc2c(c1)C(=O)N([C@@H](C)CO)C[C@@H](C)[C@@H](CN(C)Cc1ccc3c(c1)OCO3)O2	-3
COc1cccc(OCC(=O)Nc2cc([N+](=O)[O-])ccc2OC)c1	-14
CNC[C@H]1Oc2ccc(N)cc2C(=O)N([C@@H](C)CO)C[C@@H]1C	-9
CNC[C@H]1Oc2ccc(NC(=O)C3CCCCC3)cc2C(=O)N([C@H](C)CO)C[C@H]1C	2
Cc1ccc(NC(=O)COc2ccc3cc(-c4ccc(F)cc4)c(=O)oc3c2)cc1	23
O=C(COc1ccc(N2CC(C(=O)O)CC2=O)cc1)Nc1ccc(Cl)c(Cl)c1 (configuration not stated)	29
NC(=O)NCCc1ccccc1	-20
COc1cccc2c1C(=O)CC(c1ccccc1)O2 (configuration not stated)	28
Cc1ccc(S(=O)(=O)N(C)C[C@H]2Oc3ccc(NC(=O)Nc4ccc(C(F)(F)F)cc4)cc3CC(=O)N([C@@H](C)CO)C[C@@H]2C)cc1	26
Cc1ccc(S(=O)(=O)Nc2cccc3c2O[C@@H](CN(C)C(=O)Nc2ccc(F)cc2)[C@H](C)CN([C@@H](C)CO)C3=O)cc1	6
CC(=O)NC(=O)NCc1ccccc1	-3
CC(C)(C)c1cc(-c2cccs2)c(C#N)c(SCC(=O)Oc2ccccc2)n1	18
COc1ccc(CN(C)C[C@H]2OCCCC[C@@H](C)Oc3ccc(NC(=O)Nc4ccccc4)cc3C(=O)N([C@H](C)CO)C[C@@H]2C)cc1	68
C[C@@H]1CN([C@@H](C)CO)C(=O)Cc2cc(NS(=O)(=O)c3cccs3)ccc2O[C@@H]1CN(C)S(=O)(=O)c1ccc(Cl)cc1	21
C[C@H]1CN([C@@H](C)CO)C(=O)c2cccc(NS(=O)(=O)c3ccc(Cl)cc3)c2O[C@H]1CN(C)S(=O)(=O)c1ccc(F)cc1	5
CCOC(=O)c1c(NC(=O)c2cc(S(=O)(=O)N3CCOCC3)ccc2OC)sc2c1CCC2	34
C[C@@H]1CN([C@@H](C)CO)C(=O)c2cc(NC(=O)Nc3ccc(C(F)(F)F)cc3)ccc2O[C@@H]1CN(C)C(=O)Nc1ccc(C(F)(F)F)cc1	114*
COc1ccc(NC(=O)N(C)C[C@H]2Oc3ccc(NC(=O)Nc4ccc(C(F)(F)F)cc4)cc3CC(=O)N([C@@H](C)CO)C[C@@H]2C)cc1	18
C[C@@H]1CN([C@@H](C)CO)C(=O)c2cccc(NC(=O)c3nc4ccccc4s3)c2O[C@@H]1CN(C)CC1CC1	26
Cn1c(SCC(=O)Nc2ccccc2C(F)(F)F)nnc1-c1ccco1	-5
Cc1ccc(-n2c(C)nnc2SCC(=O)Nc2ccc(Br)cc2F)cc1	-4

Further structures follow.
SMILES	NOMO-1 viab
COc1c(O)c(C(=O)/C=C\c2ccccc2)c(OC)c(OC)c1OC	58
C[C@@H]1CCCCO[C@@H](CN(C)S(=O)(=O)c2ccc(Cl)cc2)[C@@H](C)CN([C@H](C)CO)C(=O)c2cc(NS(=O)(=O)c3cccs3)ccc2O1	57
COc1cc2c(cc1NC(=O)CCCOc1ccccc1)oc1ccccc12	-4
CC(=O)Nc1ccc(S(=O)(=O)N(C)CC(=O)O)cc1	7
C[C@@H]1O[C@@H](O[C@@H]2C=C(CO)[C@H]3[C@H](O[C@@H]4O[C@H](CO)[C@@H](O)[C@H](O)[C@H]4O)OC=C[C@H]32)[C@H](O)[C@H](O)[C@H]1OC(=O)/C=C/c1ccccc1	-9
Cc1ccc(C)c(-n2nnnc2SCC(=O)Nc2c(C)n(C)n(-c3ccccc3)c2=O)c1	-14
COc1ccc(CN(C)C[C@H]2Oc3ccc(NC(=O)Nc4c(C)noc4C)cc3CC(=O)N([C@@H](C)CO)C[C@@H]2C)cc1	6
Cc1ccc(Cl)c(OCC(O)Cn2cnc3ccccc32)c1 (configuration not stated)	40
C[C@H](CO)N1C[C@H](C)[C@H](CN(C)CC2CC2)Oc2ccc(NS(=O)(=O)c3cccs3)cc2C1=O	-6
C[C@H](CO)N1C[C@H](C)[C@H](CN(C)S(=O)(=O)c2cccs2)Oc2ccc(NC(=O)c3ccncc3)cc2C1=O	19
COc1cc(OC)c(-c2c(OC)cc(OC)cc2OC)c(OC)c1	16
CC(Oc1ccc(Br)cc1)c1nc(-c2ccccn2)no1 (configuration not stated)	40
CC1=CS(=O)(=O)CC1Sc1nc2ccccc2[nH]1 (configuration not stated)	-16
CCCN1CCC2(CC1)C(C#N)=C(S)NC(=O)C2C#N (configuration not stated)	27
O=C(NCCN1CCOCC1)C(=O)NCC1COc2ccccc2O1 (configuration not stated)	-20
Cc1noc(C)c1S(=O)(=O)Nc1ccc2c(c1)CC(=O)N([C@H](C)CO)C[C@@H](C)[C@H](CN(C)CC1CC1)O2	2
C[C@H](CO)N1C[C@H](C)[C@@H](CN(C)S(=O)(=O)c2cn(C)cn2)Oc2ccc(NC(=O)Cn3cnnn3)cc2C1=O	21
COc1ccc(/C=C2\CC/C(=C\c3ccc(C)cc3)C2=O)cc1	11
O=S(=O)(Nc1ncccn1)c1ccc(NC(=S)Nc2ccc(F)c(Cl)c2)cc1	1
O=C(CCn1cnc2ccccc2c1=O)Nc1ccc(Cl)c(Cl)c1	-1
CCC(=O)Nc1ccc(S(=O)(=O)Nc2cccnc2)cc1	5
CSc1sc(C(=O)NN)cc1-c1nc(C)cs1	28
COc1ccc(CN(C)C[C@H]2Oc3c(NS(=O)(=O)c4cn(C)cn4)cccc3C(=O)N([C@@H](C)CO)C[C@H]2C)cc1	1
COc1ccc(S(=O)(=O)N(C)C[C@@H]2Oc3c(NC(=O)NC(C)C)cccc3C(=O)N([C@H](C)CO)C[C@@H]2C)cc1	11
CNC[C@@H]1Oc2c(NC(=O)C3CCCCC3)cccc2C(=O)N([C@@H](C)CO)C[C@@H]1C	13
Cc1ccc(NC(=O)c2ccc(CSc3ncnc4nc[nH]c34)cc2)cc1	-1
COc1ccccc1C1CCN(C(=O)c2cccs2)CC1	14
Cc1ccc(NC(=O)CSc2nnc(-c3ccncc3)n2-c2ccccc2)cc1	-1
Cc1noc(C)c1NC(=O)Nc1ccc2c(c1)C(=O)N([C@H](C)CO)C[C@H](C)[C@H](CN(C)C(=O)Nc1cccc3ccccc13)OCCCC[C@@H](C)O2	15
O=C(c1cc2cc(Br)ccc2oc1=O)N1CCCc2ccccc21	5
Cc1cc(CNC(=O)Nc2cccc([N+](=O)[O-])c2)nn1C	16
Cc1ccccc1NC(=O)Cn1cnc2c1c(=O)n(C)c(=O)n2C	3
C[C@H](CO)N1C[C@H](C)[C@@H](CN(C)S(=O)(=O)c2cn(C)cn2)Oc2c(NS(=O)(=O)c3ccc(F)cc3)cccc2C1=O	-3

Reformatted: results already given
| compound | NOMO-1 viab |
| --- | --- |
| CSc1sc(C(=O)NN)cc1-c1nc(C)cs1 | 28 |
| COc1ccc(CN(C)C[C@H]2Oc3c(NS(=O)(=O)c4cn(C)cn4)cccc3C(=O)N([C@@H](C)CO)C[C@H]2C)cc1 | 1 |
| COc1ccc(S(=O)(=O)N(C)C[C@@H]2Oc3c(NC(=O)NC(C)C)cccc3C(=O)N([C@H](C)CO)C[C@@H]2C)cc1 | 11 |
| CNC[C@@H]1Oc2c(NC(=O)C3CCCCC3)cccc2C(=O)N([C@@H](C)CO)C[C@@H]1C | 13 |
| Cc1ccc(NC(=O)c2ccc(CSc3ncnc4nc[nH]c34)cc2)cc1 | -1 |
| COc1ccccc1C1CCN(C(=O)c2cccs2)CC1 | 14 |
| Cc1ccc(NC(=O)CSc2nnc(-c3ccncc3)n2-c2ccccc2)cc1 | -1 |
| Cc1noc(C)c1NC(=O)Nc1ccc2c(c1)C(=O)N([C@H](C)CO)C[C@H](C)[C@H](CN(C)C(=O)Nc1cccc3ccccc13)OCCCC[C@@H](C)O2 | 15 |
| O=C(c1cc2cc(Br)ccc2oc1=O)N1CCCc2ccccc21 | 5 |
| Cc1cc(CNC(=O)Nc2cccc([N+](=O)[O-])c2)nn1C | 16 |
| Cc1ccccc1NC(=O)Cn1cnc2c1c(=O)n(C)c(=O)n2C | 3 |
| C[C@H](CO)N1C[C@H](C)[C@@H](CN(C)S(=O)(=O)c2cn(C)cn2)Oc2c(NS(=O)(=O)c3ccc(F)cc3)cccc2C1=O | -3 |
